Compound activity deposited in PubChem BioAssay by National Center for Advancing Translational Sciences (NCATS).
miR-21 FLuc: raises the signal of a miR-21 reporter; HeLa miR-21 FLuc reporter, luciferase, 48 h; Potency, µM (series often up to 38.3 µM), for the others: at the highest dose reporter change, positive = more light; 340,000 tested, under 10 active; AID 2288; active = well fitted rising curve with a large enough effect; inconclusive = small, poorly fitted or top-dose-only effect; inactive = no such curve, though single readings can be large or run the other way;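 also: % of control where 0% means no effect; miR-21 action dims this reporter so a rising signal means less miR-21 action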
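Compounds were titrated across several concentrations (up to approximately 40 uM) and incubated 48 hours with HeLa miR-21-FLuc reporter cells (miR-21 target sequence downstream of FLuc, endogenous miR-21). Readout was firefly luciferase luminescence after lytic detection reagent.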
Rango release inh: inhibitors of RanGTP-induced Rango-importin beta complex dissociation; O95149+P62826; Biochemical FRET Rango-importin beta, RanGTP-induced dissociation; Potency, µM (highest dose often 46.1 µM), without a hit: at the top dose activity change, negative = inhibition; hit rate 0.071% among 340,000; AID 540253; active means falling FRET ratio curve, often poorly fitted, with flat reads before Ran was added; inconclusive means other falling curves, or compound fluorescence or quenching; inactive means flat or rising ratio curve;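 also: potency is read from the fitted curve at half-maximal effect; % of control where 0% means no effect; nearly all actives have a fitted effect of over 45% in size; -100% = wells without RanGTP and RCC1; the record marks most hits as doubtful in a second field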
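Rango (0.1 uM)–importin beta (0.25 uM) complex; RanGTP-RCC1 trigger; 45 min RT; CFP/YFP FRET read.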
Rango complex inh: prevents formation of the Rango-importin beta complex; AID 540263; hit rate 0.031% among 340,000; Rango CFP/YFP FRET sensor + importin beta, 45 min; Potency, µM (series often up to 92.2 µM), inactives show at the highest dose inhibition of complex formation; active = rising FRET ratio curve, often small or poorly fitted; inconclusive = mostly compound fluorescence or quenching in the first reads; inactive = flat curves in all reads;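 also: potency is read from the fitted curve at half-maximal effect; 0% = DMSO wells and 100% = buffer wells lacking importin beta; nearly all actives have a fitted effect of over 15% in size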
Target sequence (Q14974 whole entry, looked up): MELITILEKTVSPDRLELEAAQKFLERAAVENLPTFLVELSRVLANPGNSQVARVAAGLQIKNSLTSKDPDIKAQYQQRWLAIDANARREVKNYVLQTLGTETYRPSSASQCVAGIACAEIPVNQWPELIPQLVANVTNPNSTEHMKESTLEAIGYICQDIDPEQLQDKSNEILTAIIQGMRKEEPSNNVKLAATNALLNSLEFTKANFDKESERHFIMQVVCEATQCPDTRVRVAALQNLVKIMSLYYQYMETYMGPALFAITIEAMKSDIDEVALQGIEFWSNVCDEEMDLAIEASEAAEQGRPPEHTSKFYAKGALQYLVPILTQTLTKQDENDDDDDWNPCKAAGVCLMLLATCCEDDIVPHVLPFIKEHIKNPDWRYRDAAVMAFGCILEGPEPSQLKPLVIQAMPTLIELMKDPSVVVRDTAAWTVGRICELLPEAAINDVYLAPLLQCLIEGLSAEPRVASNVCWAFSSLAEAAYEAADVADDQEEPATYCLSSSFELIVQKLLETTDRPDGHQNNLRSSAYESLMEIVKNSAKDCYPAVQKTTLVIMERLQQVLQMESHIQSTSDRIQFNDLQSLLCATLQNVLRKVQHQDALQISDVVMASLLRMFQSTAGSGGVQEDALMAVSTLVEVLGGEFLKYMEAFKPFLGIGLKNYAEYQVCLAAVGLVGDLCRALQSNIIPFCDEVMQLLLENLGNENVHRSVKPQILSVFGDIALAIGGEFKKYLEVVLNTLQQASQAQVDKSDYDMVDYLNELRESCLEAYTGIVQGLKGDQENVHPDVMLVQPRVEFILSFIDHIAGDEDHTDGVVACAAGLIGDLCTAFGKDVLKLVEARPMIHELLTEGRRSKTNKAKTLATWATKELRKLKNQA
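FRET biosensor (snurportin 1 IBB flanked by EYFP and cerulean), 50 nM, with compound 5 min, then 0.125 microM importin beta in PBS, 1 mM DTT, 0.02% Tween-20, 0.1% BSA. CFP/YFP ratio read after 45 min at room temperature; pre-read flags interference.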
GLA inh pH 4.5: alpha-galactosidase A (human) inhibition, pH 4.5; AID 1467; purified enzyme, 4-MU-alpha-Gal fluorescence, pH 4.5; 230,000 tested, under 10 active; activity change, negative = inhibition, % at 105 µM; inconclusive = small, poorly fitted or top-dose-only inhibition, or a rising curve; inactive = flat fitted curve, though single readings scatter; no compound was filed as active;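 also: 0% = full activity with enzyme and -100% = basal without enzyme; dose as in the result columns while the protocol names 77 µM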
* = called active by the depositor; ? = inconclusive; · = not tested or not shown; [ ] = remark or other dose. Only part of the results is shown; rates above refer to the full screens.

A first look, two compounds:
SMILES	miR-21 FLuc	Rango release inh	Rango complex inh	GLA inh pH 4.5
CCOC(=O)[C@H]1[C@H]2COc3ccc(OC)cc3[C@@H]2N2C(=O)c3ccc(Cl)cc3NC(=O)[C@@]12C	·	-7%	-0.9%	·
COCCNC(=O)NC(=O)CN1CCCc2ccccc21	2%	2%	1.6%	2

The whole of this part, previewed entries included:
SMILES	miR-21 FLuc	Rango release inh	Rango complex inh	GLA inh pH 4.5
CCOC(=O)[C@H]1[C@H]2COc3ccc(OC)cc3[C@@H]2N2C(=O)c3ccc(Cl)cc3NC(=O)[C@@]12C	·	-7%	-0.9%	·
COCCNC(=O)NC(=O)CN1CCCc2ccccc21	2%	2%	1.6%	2
CC(NC(=O)CCl)c1ccccc1Br (stereo not given)	?	0%	2.5%	1
O=C(Nc1nccs1)C1CCCN(S(=O)(=O)c2cccc3cccnc23)C1 (stereo not given)	19%	0%	?	-3
COc1ccc(C2C(C(=O)Nc3cc(C)on3)c3ccccc3C(=O)N2C)cc1 (stereo not given)	-5%	4%	0.0%	2
CCOC(=O)c1ncccc1NC(=O)CC(=O)Nc1cccnc1C(=O)OCC	·	?	0.6%	·
Cc1c(C(=O)NCc2ccc(S(N)(=O)=O)cc2)oc2ccc(Cl)cc12	-7%	1%	?	1
C#Cc1ccc([C@@H]2C=C(C(=O)NCc3nc4ccccc4[nH]3)O[C@H](OCC)[C@H]2CCCO)cc1	16%	-2%	-1.6%	-6
C/C(=N\O)c1ccc(Cl)c(Cl)c1	-14%	-5%	-1.7%	3
CCN(C1CCCCC1)S(=O)(=O)c1ccc(S(=O)(=O)NCc2ccncc2)cc1	19%	-11%	1.2%	-1
C=C(C)CN(CC)CCC(=O)Nc1ccc(OC)cc1OC	-2%	-3%	-0.4%	-5
COc1ccc(CCNC(=O)C2Cc3ccccc3C(=O)O2)cc1 (stereo not given)	0%	20%	3.1%	-1
COc1cc(-c2nnc(-c3ccc(N4CCOCC4)cc3)o2)cc(OC)c1OC	-1%	-11%	5.0%	8
OCCN1CCN(CC#CCn2c3ccccc3c3ccccc32)CC1	-24%	-3%	2.4%	6
COc1cc(Br)c(CCNC(=O)c2ccco2)cc1OC	2%	-23%	-1.0%	5
COc1ccc(NC(=O)CCNS(=O)(=O)c2ccc3c(c2)c(=O)n(C)c(=O)n3C)cc1OC	1%	0%	1.1%	-9
COc1ccc(-n2nc3c(c2NC(=O)CCl)CSC3)cc1	?	3%	2.9%	·
Cc1cc(C)c2oc(C(=O)N(Cc3ccccc3)C3CCS(=O)(=O)C3)cc(=O)c2c1 (stereo not given)	-9%	-5%	5.8%	-11
Nc1ccc(-c2cnc(N)c(C(=O)c3cccnc3)n2)cn1	·	-3%	-2.3%	·
CCOC(=O)c1sc2cccc(F)c2c1N	-13%	12%	-1.8%	19
Cc1cccc(NC2=C(NC(=O)c3ccccc3)C(=O)c3ccccc3C2=O)c1	6%	12%	0.2%	-27
CCC(=O)Nc1cccc(NC(=O)c2ccccc2Cl)c1	0%	-4%	-3.3%	-4
N#CCc1c(C#N)c(N)nc(N2CCN(S(=O)(=O)c3ccccc3F)CC2)c1C#N	-20%	-5%	?	·
COCCN(CCOC)S(=O)(=O)c1ccc(C(=O)NC2CCN(Cc3ccccc3)CC2)cc1	13%	2%	-1.4%	-14
CNC(=O)CC1C(=O)N(c2ccc(Cl)cc2)C(=S)N1NC(=O)c1cccc(F)c1 (stereo not given)	-27%	4%	-1.8%	·
O=[N+]([O-])c1cccc(/C=N\N2CCN(c3ccc(Cl)cc3)CC2)c1	-1%	1%	-1.8%	-2
CC(C)c1ccc(N(CC(=O)N2CCN(Cc3ccccc3)CC2)S(C)(=O)=O)cc1	6%	1%	1.3%	·
CCN=C1S/C(=C\c2ccc(OC)c(OCC)c2)C(=O)N1CC	-14%	·	·	1
CCOC(=O)COn1c(=O)c(-c2cc3ccccc3o2)[n+]([O-])c2ccccc21	-46%	?	?	3
O=C1C2CCCN2C(c2ccc(F)c(F)c2)N1c1cccc(Cl)c1 (stereo not given)	2%	7%	0.1%	3
CC(C)C(NC(=O)OCc1ccccc1)C(=O)NCc1ccc(C(=O)O)cc1 (stereo not given)	-2%	-7%	2.8%	5
CCOc1ccccc1C(=O)N(Cc1ccco1)C1CCS(=O)(=O)C1 (stereo not given)	-11%	-15%	1.2%	3
CC(C)(C)CC(=O)N1CCN(Cc2ccc3c(c2)OCO3)CC1	-7%	18%	-0.4%	·
CC1(C)CC2CC(C)(CN2CC(O)c2ccccc2)C1 (stereo not given)	-1%	0%	1.5%	·
Cc1ccc(CNC(=O)c2cc(=O)c3ccccc3o2)cc1	-10%	-7%	?	·
CN(CCO)c1ccc(/C=N/Nc2nncc3ccccc23)cc1	-1%	?	1.0%	·
Fc1ccc(Sc2cc(Cl)c(-c3ccccc3)nn2)cc1	-2%	-1%	1.2%	-9
Cc1cccc(N2CC(C(=O)Nc3ccc(S(=O)(=O)NCC4CCCO4)cc3)CC2=O)c1C (stereo not given)	9%	0%	-1.3%	·
O=C1[C@@H]2Cc3c([nH]c4ccccc34)C(c3ccc([N+](=O)[O-])cc3)N2C(=O)CN1C1CC1 (stereo not given in full)	21%	5%	?	·
O=C(NCCOc1ccccc1Cl)c1ccc2c(c1)S(=O)(=O)c1cc(Cl)ccc1C2=O	·	-3%	6.4%	·
Cc1ccc(C(=O)COC(=O)CN2C(=O)C3C4CCC(C4)C3C2=O)cc1[N+](=O)[O-] (stereo not given)	-7%	0%	-0.7%	-2
S=C(NCc1ccncc1)Nc1cc(Cl)cc(Cl)c1	18%	10%	1.4%	·
Cc1ccc(S(=O)(=O)N2[C@@H](c3ccc(C(C)(C)C)cc3)C(C(=O)O)=CC[C@H]2c2ccc(Cl)cc2)cc1	·	7%	2.3%	·
Cc1nc(SC2CC(=O)N(c3ccccc3)C2=O)nc2c1CCCC2 (stereo not given)	-6%	-11%	0.6%	-10
Cc1nn(CCCC(=O)N2CCc3ccccc3C2)c(=O)c2cc3sccc3n12	-11%	0%	0.8%	3
CCOc1ccc(Nc2nc(N)nc(CSC(=S)N3CCN(c4ccccc4)CC3)n2)cc1	0%	31%	-0.1%	-1
CCOC(=O)CCCCC(=O)c1[nH]c(=O)[nH]c1Cn1cnc2ccccc21	1%	13%	0.6%	-2
O=C(Cc1ccccc1)Nc1nc(-c2cccc([N+](=O)[O-])c2)cs1	-7%	?	2.8%	4
COc1ccc(Cl)cc1Nc1cc(C)nc2ccccc12	·	?	?	·
O=C(O)CC/C(=N\NC(=O)CNC(=O)c1ccc(F)cc1)c1ccccc1	0%	14%	-2.5%	1
CCN1CCN(CCCNC(=O)C2CCCN(c3nc4c(C)cc(C)cc4s3)C2)CC1 (stereo not given)	-13%	10%	0.8%	·
CC/C(=N\NC(=O)c1nnn(-c2nonc2N)c1-c1cccc(OC)c1)c1ccc(C)cc1	3%	0%	-1.6%	·
O=C(c1cccc2ccccc12)N1CCC(N2CCN(c3ccccc3)CC2)CC1	0%	1%	4.0%	0
COc1cccc(CN(C)Cc2cc(=O)oc3c(C)c(C)ccc23)c1	5%	0%	0.8%	·
Cc1ccc(OCC(=O)NNC(=O)CSC(=S)N2CCCC2)cc1	·	0%	4.2%	·
Cc1ccc(OCc2nnc(SCC(=O)c3cccc([N+](=O)[O-])c3)n2C)cc1	-1%	36%	2.1%	-8
CNC(=O)N(O)C1N(/N=C/c2ccc(SC)cc2)C(=S)SC1(C)C (stereo not given)	-8%	1%	-1.1%	·
CCOc1ccc2oc(C(=O)Nc3ccc(N4CCOCC4)cc3)c(C)c2c1	-13%	-5%	0.5%	5
COc1ccc(-c2nc(CS(=O)CC(=O)NCCN3CCCCCC3)c(C)o2)cc1OC (stereo not given)	1%	?	7.1%	·
COC(=O)CNC(=S)NC(=O)c1ccc(C(C)(C)C)cc1	10%	-5%	-2.9%	4

An excerpt from above in order of their number in Rango release inh, rising:
SMILES	miR-21 FLuc	Rango release inh	Rango complex inh	GLA inh pH 4.5
CCOc1ccc2oc(C(=O)Nc3ccc(N4CCOCC4)cc3)c(C)c2c1	-13%	-5%	0.5%	5
Cc1ccc(C(=O)COC(=O)CN2C(=O)C3C4CCC(C4)C3C2=O)cc1[N+](=O)[O-] (stereo not given)	-7%	0%	-0.7%	-2
CCN1CCN(CCCNC(=O)C2CCCN(c3nc4c(C)cc(C)cc4s3)C2)CC1 (stereo not given)	-13%	10%	0.8%	·
CCOC(=O)CCCCC(=O)c1[nH]c(=O)[nH]c1Cn1cnc2ccccc21	1%	13%	0.6%	-2
CCOc1ccc(Nc2nc(N)nc(CSC(=S)N3CCN(c4ccccc4)CC3)n2)cc1	0%	31%	-0.1%	-1

The list continues:
SMILES	miR-21 FLuc	Rango release inh	Rango complex inh	GLA inh pH 4.5
Cc1ccc([N+](=O)[O-])cc1NC(=O)CSc1n[nH]c(-c2cccnc2)n1	-1%	18%	-1.9%	·
CCC(=O)Nc1nnc(S(=O)(=O)N(CC)c2ccc(Cl)cc2)s1	3%	18%	0.5%	·
Cc1cc(O)cc2c1C(c1ccc(F)cc1)CC1(CC(C)(C)NC(=S)N1)O2 (stereo not given)	14%	-1%	-2.8%	-5
Cn1c(=O)[nH]c(=O)c2c1nc(NCCCO)n2CCCc1ccccc1	-3%	23%	3.3%	-5
Cc1nn(CC(=O)Nc2ccc(C#N)cc2)c(C)c1[N+](=O)[O-]	-1%	-2%	0.0%	-20
O=C(Nc1ccnn1C1CCN(CCCc2ccccc2)CC1)c1ccccc1Cl	-1%	13%	1.1%	·
CN1CCN(CC(=O)Nc2ccccc2C(F)(F)F)CC1	4%	11%	-1.4%	·
CN1C(=O)/C(=C/c2ccc(C(=O)NC3CCCC3)cc2)Oc2ccccc21	-27%	24%	-0.5%	19
O=C(COc1ccccc1)Nc1ccc(F)cc1	·	10%	-3.7%	·
Cc1cccc(CNc2ccc(S(=O)(=O)N3CCCCC3)cc2)c1	·	-4%	-1.8%	·
Cc1ccc(/C=N/NC(=O)Cn2ccc(C(F)(F)F)n2)o1	5%	4%	-0.5%	4
CC1(C)Cc2c(C#N)c(SCCO)nc(N3CCOCC3)c2CO1	-7%	-16%	2.0%	·
CC(C)(CO)NC(=O)CC1C(=O)NCCN1CC(c1ccccc1)c1ccccc1 (stereo not given)	1%	-9%	-4.4%	0
CCN(c1ccccc1)S(=O)(=O)c1ccc(OC)c(NC(=O)c2cc(F)c(F)c(F)c2F)c1	·	22%	-3.3%	·
O=C(Oc1cccccc1=O)c1ccccc1	20%	18%	8.6%	·
COc1ccc(CCc2nnc(CCC(=O)NCCc3ncccc3C)o2)cc1	-18%	-11%	-0.8%	3
Cc1ccc(S(=O)(=O)c2ccccc2)cc1S(=O)(=O)N1CCOCC1	1%	1%	-6.1%	1
CCCS(=O)(=O)N1CCC(CCOc2ccccc2)(C(=O)OCC)CC1	6%	-4%	-0.8%	-2
CC(C)(C)c1cc(=O)n2c(nc3ccccc32)[nH]1	-18%	1%	-2.5%	9
CCCN1Cc2cccc(C(=O)NCc3ccc(C)cc3)c2C1=O	-9%	16%	3.9%	4[21.1 µM]
O=C(CSc1ccc(Cl)cc1)NCc1ccncc1	2%	-2%	0.4%	5[21.1 µM]
CC(=O)NCCOc1cccc(OCCNC(C)=O)c1	-3%	3%	-2.0%	3
COCCn1c(SCC(=O)N2CCC(C)CC2)nc2c([nH]c3ccccc32)c1=O	0%	-2%	-3.5%	·
Clc1cccc(CN2CCSCC2)c1	-2%	16%	-0.2%	·
Nc1ccc2nc3c(=O)n(C4CCCCC4)c(=O)[nH]c3nc2c1	-67%	-23%	?	0
Brc1ccc2nc(-c3c[nH]c4ccccc34)cn2c1	-53%	0%	3.5%	-24
O=C(Nc1ccc2c(c1)OCCO2)C1c2ccccc2C(=O)N2CCc3ccccc3C12 (stereo not given)	-7%	-7%	0.1%	-5
O=S(=O)(c1ccc2c(c1)CCCN2)N1CCCCC1	·	-12%	-2.5%	·
O=C(NNC(=O)C1[C@H]2CCCC[C@@H]12)NC1CCCCC1 (stereo not given in full)	-20%	-4%	-6.4%	-5
COc1cccc(C(=O)COC(=O)c2ccc(NC(C)=O)cc2)c1	-6%	1%	?	6
Nc1cccc2c1C(=O)c1ccc(Cl)cc1C2=O	·	-2%	-0.9%	·
